# High-throughput results: PubChem, National Center for Advancing Translational Sciences (NCATS)
# EPAC2 ant val – validation of human EPAC2 antagonists | Q8WZA2 | EPAC2 Rap1B BODIPY-GDP exchange, fluorescence | Potency, µM (series often up to 112 µM), for the others: top-dose activity, negative = inhibition, hits mostly inhibitors | 1.7% of 16,000 active | AID 1645886; active means well fitted inhibition curve with a large enough effect; inconclusive means small, poorly fitted or top-dose-only effect; inactive means no such curve, though single readings can be large or run the other way;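 further: 100% = activation by cAMP agonist control; nearly all actives have a fitted effect of over 40% in size; the record reuses the description of the EPAC1 agonist screen; inactives centre near -10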
# Target sequence (Q8WZA2 whole entry, looked up): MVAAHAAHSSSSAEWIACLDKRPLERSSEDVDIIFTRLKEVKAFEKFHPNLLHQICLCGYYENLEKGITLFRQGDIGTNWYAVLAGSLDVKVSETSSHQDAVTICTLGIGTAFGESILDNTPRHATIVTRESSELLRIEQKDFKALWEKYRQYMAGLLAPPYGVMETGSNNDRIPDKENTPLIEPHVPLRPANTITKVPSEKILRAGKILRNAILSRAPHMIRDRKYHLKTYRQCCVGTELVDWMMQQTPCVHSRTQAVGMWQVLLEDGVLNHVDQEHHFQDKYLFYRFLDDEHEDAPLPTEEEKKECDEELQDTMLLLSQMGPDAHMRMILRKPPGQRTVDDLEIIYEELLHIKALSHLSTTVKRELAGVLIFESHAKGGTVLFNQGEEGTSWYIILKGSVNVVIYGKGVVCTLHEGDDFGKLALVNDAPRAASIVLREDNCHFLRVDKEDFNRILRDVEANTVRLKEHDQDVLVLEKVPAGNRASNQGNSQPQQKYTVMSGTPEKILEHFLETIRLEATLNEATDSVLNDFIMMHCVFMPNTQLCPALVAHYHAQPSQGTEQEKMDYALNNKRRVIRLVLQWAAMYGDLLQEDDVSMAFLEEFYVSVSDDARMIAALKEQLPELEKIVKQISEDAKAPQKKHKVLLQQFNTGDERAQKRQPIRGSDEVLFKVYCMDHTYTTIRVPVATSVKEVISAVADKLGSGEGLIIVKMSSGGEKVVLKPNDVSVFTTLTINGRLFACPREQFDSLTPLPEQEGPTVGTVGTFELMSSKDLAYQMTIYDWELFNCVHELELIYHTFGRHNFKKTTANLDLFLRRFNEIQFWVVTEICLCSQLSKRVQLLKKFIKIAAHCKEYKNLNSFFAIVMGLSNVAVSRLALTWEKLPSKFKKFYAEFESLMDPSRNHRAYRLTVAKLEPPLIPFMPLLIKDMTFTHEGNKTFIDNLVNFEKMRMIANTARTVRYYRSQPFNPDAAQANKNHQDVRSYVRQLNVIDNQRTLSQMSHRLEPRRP
#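 Normalized against a 6.5 mM cAMP agonist control, compounds were tested on 100 nM EPAC2 exchanging Rap1B-bound BODIPY-GDP (250 nM) for 50 uM GDP. Fluorescence drop (ex 480, em 540 nm) was tracked at room temperature over 30 min at 5-min intervals.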
# An asterisk follows results filed as active; u = inconclusive; & = joins results of further samples; [ ] = remark or other dose. Potency means the concentration at half of the fitted maximal effect. Only part of the results is shown. The share of hits here may be higher or lower than overall.
SMILES,EPAC2 ant val
C/C(=C(\CCOC(=O)c1ccccc1)SS/C(CCOC(=O)c1ccccc1)=C(/C)N(C=O)Cc1cnc(C)nc1N)N(C=O)Cc1cnc(C)nc1N,-2.5%
C[C@@H]1CCC[C@H](C)N1,6.1%[56.6 µM]
CC(C)CN1CCC(=O)N(CCOc2ccccc2)CC1,-6.8%
N#Cc1ccc(CN2CC3(CCN(C(=O)c4cc(C(F)(F)F)cc(C(F)(F)F)c4)CC3)C2)cc1,-25.3%
CCCCCCCCCCCCCCCCO,-10.6%
CC(=O)N(O)CCCCCNC(=O)CCC(=O)N(O)CCCCCNC(=O)CCC(=O)N(O)CCCCCN,-10.7%[56.6 µM]
Cc1cccc(CNc2ncnc3ccc(-c4ccccc4C#N)cc23)c1,-12.1%
Cc1ccc(C(=O)N(Cc2cc3cccc(C)c3nc2N(C)C)CC2CCCO2)cc1 (stereo not given),-2.4%
Cc1cc(=O)c(C(=O)NCCCc2ccncc2)c2n1-c1ccccc1SC(c1cccs1)C2 (stereo not given),-10.1%
CN(C)C(=O)c1ccc(-c2nc(NCc3cccs3)c3ccccc3n2)cc1,-8.4%
Nc1ccccc1C(=O)CC(N)C(=O)O (stereo not given),-6.7%&-7.1%
CO[C@@H]1[C@@H](O[C@@H]2O[C@H](C)[C@@H](O[C@H]3C[C@@](C)(O)[C@@H](OC(=O)CC(C)C)[C@H](C)O3)[C@H](N(C)C)[C@H]2O)[C@@H](CC=O)C[C@@H](C)C(=O)/C=C/C2OC2C[C@@H](C)OC(=O)C[C@H]1OC(C)=O (stereo not given in full),0.7%
CN(C)C(=O)c1ccc(-c2nc(N(C)Cc3ccco3)c3ccccc3n2)cc1,-21.0%
Cc1ccc2cc(CN(C(=O)c3ccc4c(c3)OCO4)C3CC3)c(N(C)C)nc2c1,-27.1%
O=C(Nc1ccccc1)N1CC[C@@]2(CCCN(C(=O)c3ccncc3)C2)C1,-15.2%
C1=Cc2ccccc2/C1=C\c1ccc2c(c1)OCO2,u
COc1ccccc1CNc1nc(-c2ccccc2CN(C)C)nc2ccccc12,-9.1%
O=C(c1ccncc1)N1CCC2(CC1)CCN(c1ccccc1)CC2,-19.6%
CCOC(=O)C[C@H]1c2ccc(C(F)(F)F)cc2S(=O)(=O)N1c1cccc(OC)c1,44.7µM*
CC(=O)Oc1cc(C(F)(F)F)ccc1C(=O)O,4.9%[56.6 µM]
CC1OC(OCC2OC(Oc3c(-c4ccc(O)c(O)c4)oc4cc(O)cc(O)c4c3=O)C(O)C(O)C2O)[C@@H](O)C(O)C1O (stereo not given in full),-11.8%
CC1CC(OC(=O)C(O)c2ccccc2)CC(C)(C)N1C (stereo not given),u
COc1ccc(C(=O)N2CCC3(CCN(Cc4nccs4)CC3)CC2)cc1,-13.9%
COc1ccc(Oc2ncc3nc(-c4cn(C)c5ccccc45)c(=O)n(C4CC4)c3n2)cc1,-5.5%
COc1ccc(C2C(=O)c3ccccc3C2=O)cc1,-20.3%
Cc1ccc(CN2CCOc3ccc(CN4CCC(O)(c5cccnc5)CC4)cc3C2)cc1C,-9.4%
NC(N)=NCCCCN=C(N)N,u
Cc1ccc2c(c1)CN(CCNC(=O)c1cccc(Cn3cccn3)c1)CC(C)O2 (stereo not given),-26.9%
NCCCC(=O)O,u
O=C(c1ccncc1)N1CCC2(CC1)CN(c1ccncc1)C2,u
O=c1[nH]c2cc([N+](=O)[O-])c([N+](=O)[O-])cc2[nH]c1=O,u
CCNc1ncc2ncc(=O)n(C)c2n1,-22.8%
COc1ccc(-c2oc3cc(O[C@@H]4OC(CO)C(O)C(O)C4O)c(OC)c(O)c3c(=O)c2OC)cc1O (stereo not given in full),-8.6%
COc1ccccc1-c1nc(NCc2ccccc2)c2ccccc2n1,-28.1%
COc1c2c(cc3occ(-c4ccc5c(c4)OCO5)c(=O)c13)OC(C)(C)C=C2,-14.0%
c1ccc(CNc2ccnc(-c3ccoc3)n2)cc1,-11.4%
CCNC(=O)[C@@H]1CCCN1C(=O)[C@H](CCCN=C(N)N)NC(=O)[C@H](CC(C)C)NC(=O)[C@@H](CC(C)C)NC(=O)[C@H](Cc1ccc(O)cc1)NC(=O)[C@H](CO)NC(=O)[C@H](Cc1c[nH]c2ccccc12)NC(=O)[C@H](Cc1cnc[nH]1)NC(=O)[C@@H]1CCC(=O)N1,9.9%
CN(C)[C@@H]1C(=O)C(C(=O)NCN2CCCC2)=C(O)[C@@]2(O)C(=O)C3=C(O)c4c(O)cccc4[C@@](C)(O)C3C[C@@H]12 (stereo not given in full),33.0%[activator][56.6 µM]
CC(=O)N1CCC2(CCN(Cc3nccs3)CC2)CC1,-10.3%
C=CC1=C(C(=O)O)N2C(=O)[C@@H](NC(=O)/C(=N/OCC(=O)O)c3csc(N)n3)[C@H]2SC1 (stereo in doubt),-18.5%[56.6 µM]
Cc1ccccc1CN1[C@@H](CC2CCCCC2)COCCS1(=O)=O,u
COC(=O)C1N[C@@H]([C@@H](NC(=O)COc2ccccc2)C(=O)NCc2ccsc2)SC1(C)C (stereo not given in full),3.9%
O=C1NC(=O)[C@H]2[C@@H]1[C@@H]1C=C[C@H]2C1,-10.3%
CCCC(CCC)C(=O)O,-22.6%&6.1%&-6.5%
CC(C[N+](C)(C)C)OC(N)=O (stereo not given),-19.2%&-2.4%&-2.6%
O=C(O)c1ccccc1S,37.2%
Cn1c(SCC2CCCO2)nnc1C1CCN(Cc2ccc(-c3cccc(Cl)c3)o2)CC1 (stereo not given),-15.2%
O=C(Oc1ccccc1)N1CCC2(CC1)CN(c1ccccc1)C2,u
CC(=O)Oc1c(C)cccc1C(=O)O,1.0%
N#CCCn1c(=O)c(-c2cc(F)cc(F)c2)nc2cnc(OCc3ccccc3)nc21,-15.9%
Cc1cnc(C)c(-c2cc(F)cc3c2OC(CNC(=O)CN2CCCC2)C3)n1 (stereo not given),u
C#C[C@]1(OC(C)=O)CCC2C3CCC4=CC(=O)CCC4C3CC[C@]21C (stereo not given in full),79.4µM*
COc1ccc(C2(C(=O)NCC3Cc4cccc(-c5cccnc5)c4O3)CCCC2)cc1 (stereo not given),-16.1%
COc1cccc(Cn2c(=O)cnc3cnc(Oc4ccccc4)nc32)c1,7.9%
CCCCCCN(CCCCCC)C(=O)Cc1c(-c2ccc(Cl)cc2)[nH]c2ccc(Cl)cc12,-1.7%&-13.8%
FC(F)(F)c1ccccc1-c1nccc(NCc2cccs2)n1,u
COc1ccccc1CN1CCC2(CC1)CCN(S(C)(=O)=O)CC2,-24.8%
COc1ccc(-n2c(=O)c(CCc3ccccc3)nc3cncnc32)cc1,-36.2%
Clc1ccc2nc[nH]c2c1,14.2%
COc1ccc(C(=O)N2CCC3(CCCN(Cc4ccc(C#N)cc4)C3)CC2)cc1,-28.5%

# (next part)
SMILES,EPAC2 ant val
CC/C=C(\C(=O)N[C@@H]1C(=O)N2C(C(=O)OCOC(=O)C(C)(C)C)=C(COC(N)=O)CS[C@H]12)c1csc(N)n1,24.4%&15.4%
O=S(=O)(c1ccccc1)N1CCC2(CCCN(c3ccccc3)C2)CC1,-29.7%
COc1cccc(Cn2c(=O)c(-c3ccc(Cl)cc3)nc3cncnc32)c1,-21.2%
COc1cc(OC)c2c(=O)c(-c3ccccc3)c(C)oc2c1OC,-7.5%
Cc1cc(C(=O)NCC2CCC3(CCN(Cc4ccccc4C)CC3)O2)n(C)n1 (stereo not given),u
Cc1noc(C)c1-c1nccc(NCCN2CCOCC2)n1,-11.6%
O=C(c1cccc(F)c1)N1CCC2(CC1)CN(c1cccc(-c3ccccc3)c1)C2,u
COCCn1c(=O)c(-c2cccc(C#N)c2)nc2cnc(OCc3ccccc3)nc21,-23.3%
COCC(=O)N1CCC2(CC1)CN(c1ccc(-c3ccccc3)cc1)C2,-23.1%
COc1ccc(C(=O)N2CCC3(CCCN(c4cccc(-c5ccccc5)c4)C3)CC2)cc1,-9.4%
OC[C@@H](O)COc1cccc2ccccc12,u
COc1ccc(Oc2ncc3nc(C)c(=O)n(-c4ccc(OC)cc4)c3n2)cc1,-27.2%
Cc1cccc(N(C)C(=S)Oc2ccc3ccccc3c2)c1,-26.6%[56.6 µM]
CCCCCCCCCCCCCCCC(=O)OC/C=C(C)/C=C/C=C(C)/C=C/C1=C(C)CCCC1(C)C,-29.3%&4.7%
CCNc1ncc2nc(-c3ccc(OC)cc3)c(=O)n(CCOC)c2n1,15.2%
Nc1c(Br)cc(C=O)cc1Br,-3.0%
C[C@@H](N)CCCP(=O)(O)O,-0.1%
COc1cccc(Cn2c(=O)c(C)nc3cnc(N4CCOCC4)nc32)c1,-11.6%
O=C(c1ccncc1)N1CCC2(CCN(Cc3ccccc3)CC2)CC1,-18.1%
Cc1[nH]c(=O)c(C#N)cc1-c1ccc2nccn2c1,5.9%&3.0%
COc1cccc(Cn2c(=O)c(-c3ccccc3)nc3cnc(N4CCN(C)CC4)nc32)c1,-11.6%
CC(=O)Nc1ccc(SCCN2CC[C@@H](C(C)(C)C)CCC2=O)cc1,u
Cc1nc2cnc(OCc3ccccc3)nc2n(CCc2ccccc2)c1=O,-33.5%
O=C(c1ccc2[nH]ccc2c1)N1CCOc2ccc(CN3CCN(c4ccccn4)CC3)cc2C1,-24.8%
COc1ncc2nc(-c3cccs3)c(=O)n(-c3ccccc3)c2n1,u
O=C(OCCN1CCOCC1)C1(c2ccccc2)CCCCC1,1.1%&1.0%&-26.2%
Cc1nn(-c2ccc(F)cc2)c(C)c1CNC(=O)c1ccc(-n2cc(NC(=O)c3ccoc3)cn2)cc1,-15.5%
CCCOc1cc(N)ccc1C(=O)OCCN(CC)CC,14.8%[56.6 µM]
O=S1(=O)CCOC[C@H](CC2CCCCC2)N1Cc1ccccc1,u
CC(C)c1cnc(NC(=O)Cc2ccccc2)s1,-17.2%
COc1ncc2nc(C)c(=O)n(-c3ccccc3)c2n1,-1.5%
CCc1cccc2c(C(O)c3c[nH]c4ccccc34)c[nH]c12 (stereo not given),-26.7%
Cc1cnc(-n2ncc(C(=O)NCCCc3ccncc3)c2C)nc1-c1ccc(F)cc1,-27.9%
Cn1c(=O)c2[nH]c(-c3ccccc3)nc2n(C)c1=O,-2.7%
Cc1noc(C)c1C(=O)N1CCC2(CCCN(C(=O)NC(C)C)C2)CC1,-14.7%
COc1ccc2c(c1)OC(C)CN(CCNC(=O)c1csc(-c3cccs3)n1)C2 (stereo not given),-10.2%
CCCCN1CCCC1C(=O)Nc1c(C)cc(C)cc1C (stereo not given),-7.3%
C[C@](Cc1ccc(O)c(O)c1)(NN)C(=O)O,6.6%
O=c1c(-c2ccc(F)cc2)nc2cnc(Oc3cccc(Cl)c3)nc2n1C1CC1,3.4%
COc1ccc(-c2ccnc(-n3ncc(C(=O)NCc4ccon4)c3C3CC3)n2)cc1F,-2.8%
CC(C)CCC[C@@H](C)[C@H]1CC[C@H]2[C@@H]3CC=C4C[C@@H](O)CC[C@]4(C)[C@H]3CC[C@]12C,-9.3%
CN(C)C(=O)c1ccc(-c2cncnc2N2CCNCC2)cc1,-17.0%
Cc1noc(C)c1C(=O)N1CCC[C@@]2(CCN(C(=O)Nc3ccccc3)C2)C1,-23.4%
CCCCCc1ccc(C)cc1O,u
CN(C)c1ccc(/C=C/c2cc(N(C)C)nc3ccccc23)cc1,u
COc1cccc(Cn2c(=O)c(-c3cn(C)c4ccccc34)nc3cnc(N4CCNCC4)nc32)c1,79.4µM*
Cc1ccccc1CN1CCCOCCS1(=O)=O,-17.2%
COc1cc(N)c(Cl)cc1C(=O)OCCN1CCCCC1,-7.9%
O=C(c1csnn1)N1CCC2(CCCN(c3cccc(-c4ccccc4)c3)C2)CC1,-16.5%
CCC(C)[C@H]1O[C@]2(C=C[C@@H]1C)C[C@@H]1C[C@@H](C/C=C(\C)[C@@H](O[C@H]3C[C@H](OC)[C@@H](O[C@H]4C[C@H](OC)[C@H](NC(C)=O)[C@H](C)O4)[C@H](C)O3)[C@@H](C)/C=C/C=C3\CO[C@@H]4[C@H](O)C(C)=C[C@@H](C(=O)O1)[C@]34O)O2 (stereo not given in full),-7.5%&-11.4%
C=CC(COCc1ccccc1)N([C@@H](Cc1ccccc1)C(=O)OC)S(=O)(=O)c1ccccc1Br (stereo not given in full),-19.2%
Nc1ccn([C@@H]2O[C@H](CO)[C@H](O)C2(F)F)c(=O)n1,3.1%
CCn1nc(C)cc1C(=O)NCC1CCC2(CCN(Cc3ccccc3F)CC2)O1 (stereo not given),-14.2%
Cc1noc(C)c1-c1cc(N(C)Cc2ccco2)ncn1,-7.1%

# Retrieved by compound from above, 5 records:
SMILES,EPAC2 ant val
C=CC(COCc1ccccc1)N([C@@H](Cc1ccccc1)C(=O)OC)S(=O)(=O)c1ccccc1Br (stereo not given in full),-19.2%
CCC(C)[C@H]1O[C@]2(C=C[C@@H]1C)C[C@@H]1C[C@@H](C/C=C(\C)[C@@H](O[C@H]3C[C@H](OC)[C@@H](O[C@H]4C[C@H](OC)[C@H](NC(C)=O)[C@H](C)O4)[C@H](C)O3)[C@@H](C)/C=C/C=C3\CO[C@@H]4[C@H](O)C(C)=C[C@@H](C(=O)O1)[C@]34O)O2 (stereo not given in full),-7.5%&-11.4%
CCn1nc(C)cc1C(=O)NCC1CCC2(CCN(Cc3ccccc3F)CC2)O1 (stereo not given),-14.2%
Nc1ccn([C@@H]2O[C@H](CO)[C@H](O)C2(F)F)c(=O)n1,3.1%
O=C(c1csnn1)N1CCC2(CCCN(c3cccc(-c4ccccc4)c3)C2)CC1,-16.5%

# Grouped by structure: the entries above containing a tert-butyl group.
SMILES,EPAC2 ant val
CC/C=C(\C(=O)N[C@@H]1C(=O)N2C(C(=O)OCOC(=O)C(C)(C)C)=C(COC(N)=O)CS[C@H]12)c1csc(N)n1,24.4%&15.4%
CC(=O)Nc1ccc(SCCN2CC[C@@H](C(C)(C)C)CCC2=O)cc1,u
